Screens deposited in PubChem by Broad Institute.
Vaccinia inh: blocks a specific stage of Vaccinia orthopoxvirus infection | AID 1053133 | activity change (mCherry), % (concentration not given with the values) | Vaccinia-infected cells, mCherry/Venus stage reporter fluorescence; active compounds read low; some inactives read as strong as hits | actives 0.01% (n = 89,000);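 active = mCherry past -33% and 40 or more points under the early reporter, replicates agreeing; inconclusive = past -33% without that gap or agreement; tested in A549 cells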;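 also: scaled between vehicle wells and reference inhibitor wells; 23 nL library stock went into each well; one replicate is shown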
Vaccinia inh Venus: also measured in Vaccinia inh; calls as there; activity change (Venus), %; measured here: Venus reporter, other viral stage;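 negative = less Venus signal; first of two replicates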
* hit, by the source's call; u = inconclusive; x = not tested or not shown; & = joins results of further samples. Some of the compounds tested; count on the stated rates, not on these rows.

SMILES,Vaccinia inh,Vaccinia inh Venus
CO[C@H]1CN(C)C(=O)c2cc(NC(=O)C3CC3)ccc2OC[C@H](C)N(C(=O)c2cnccn2)C[C@@H]1C,7,2
C[C@@H]1CCCCO[C@H](CN(C)S(=O)(=O)c2ccccc2)[C@@H](C)CN([C@H](C)CO)C(=O)c2cc(NC(=O)Nc3ccc4c(c3)OCO4)ccc2O1,27,10
C[C@@H]1CCCCO[C@@H](CN(C)C(=O)Nc2ccc3c(c2)OCO3)[C@H](C)CN([C@H](C)CO)C(=O)c2cc(NS(=O)(=O)c3ccc(Cl)cc3)ccc2O1,-16,-16
CCOC(=O)N(C)C[C@H]1OCc2cnnn2CCCC(=O)N([C@H](C)CO)C[C@@H]1C,12&7,12&4
CCCC#Cc1ccc([C@@H]2[C@H]3CN(S(=O)(=O)c4ccccc4C)CCCCN3[C@H]2CO)cc1,u,x
COc1ccc(S(=O)(=O)N(C)C[C@H]2OCCCC[C@H](C)Oc3ccc(NC(=O)Nc4ccc5c(c4)OCO5)cc3C(=O)N([C@H](C)CO)C[C@H]2C)cc1,8,9
Cc1ccc(S(=O)(=O)N(C)C[C@H]2Oc3ccc(NC(=O)Cc4ccccc4)cc3CC(=O)N([C@H](C)CO)C[C@H]2C)cc1,-17,-7
CNC[C@H]1OCc2ccccc2-c2ccccc2C(=O)N([C@@H](C)CO)C[C@H]1C,16,12
CC(=O)N1[C@H](CO)[C@@H](c2ccccc2)[C@H]1CNC(=O)CN1CCOCC1,22,11
C[C@H](CO)N1C[C@H](C)[C@@H](CN(C)S(=O)(=O)c2ccccc2)Oc2ccc(NC(=O)Nc3ccccc3)cc2C1=O,-9,2

(cont.)
SMILES,Vaccinia inh,Vaccinia inh Venus
O=C(Nc1cccc(Cl)c1)N[C@@H]1CC[C@@H](CCNC(=O)C2CCCC2)O[C@H]1CO,-3,9
C[C@H]1CN([C@@H](C)CO)C(=O)Cc2cc(NC(=O)CCC(F)(F)F)ccc2O[C@H]1CN(C)Cc1ccncc1,17,-1
C/C=C/c1ccc(C2[C@H]3CNC[C@@H]2N3C(=O)Nc2cccc(Cl)c2)cc1 (stereo partly drawn),-10,-1
C[C@H](NC(=O)C[C@H]1CC[C@@H]2[C@H](COC[C@H](O)CN2C(=O)Nc2ccccc2)O1)c1ccccc1,3,3
COc1ccc(CN(C)C[C@@H]2Oc3ccc(NC(=O)C4CCCCC4)cc3CC(=O)N([C@@H](C)CO)C[C@H]2C)cc1,-12,-7
O=C(C[C@@H]1CC[C@@H]2NC[C@@H](O)COC[C@H]2O1)NCCc1ccccc1,0,1
CN(C)C(=O)C[C@H]1C[C@@H]2c3cc(NC(=O)Nc4ccc(F)cc4)ccc3O[C@@H]2[C@@H](CO)O1,6,3
C[C@@H]1CN([C@H](C)CO)C(=O)c2cc(NS(=O)(=O)c3cccs3)ccc2O[C@H]1CN(C)C(=O)Nc1ccc(F)cc1,24,18
COc1ccc(NC(=O)N(C)C[C@@H]2Oc3ccc(NC(=O)CCCN(C)C)cc3C(=O)N([C@@H](C)CO)C[C@@H]2C)cc1,6,10
COCC(=O)N1C[C@H](C)[C@H](OC)CN(C)C(=O)c2cc(NC(=O)NC(C)C)ccc2OC[C@H]1C,4,-3

Next section:
SMILES,Vaccinia inh,Vaccinia inh Venus
COC(=O)C[C@H]1CC[C@H]2[C@@H](COC[C@@H](O)CN2C(=O)Nc2cccc(F)c2)O1,10,12
CC(C)C#Cc1ccc2c(c1)O[C@@H](CN(C)C(=O)CN(C)C)[C@@H](C)CN([C@@H](C)CO)S2(=O)=O,-20,-11
COc1ccc(C#Cc2ccc([C@H]3[C@H]4CN(C)CCCCN4[C@H]3CO)cc2)cc1,u,x
Cc1noc(C)c1NC(=O)N(C)C[C@@H]1Oc2ccc(NC(=O)c3ccncc3)cc2C(=O)N([C@@H](C)CO)C[C@@H]1C,14,6
CCCC#Cc1cnc2c(c1)C(=O)N([C@@H](C)CO)C[C@H](C)[C@H](CN(C)C(=O)Cc1ccccc1)O2,-1,0
COc1ccc(S(=O)(=O)Nc2ccc3c(c2)CC(=O)N([C@@H](C)CO)C[C@H](C)[C@H](CN(C)C(=O)Nc2ccccc2)O3)cc1,9,4
Cc1cccc(-c2ccc([C@@H]3[C@@H](CO)N4CCCCN(C(=O)c5ccncc5)C[C@H]34)cc2)c1,-12,-13
C[C@H]1CN([C@@H](C)CO)C(=O)c2cc(C#Cc3ccccc3)cnc2O[C@H]1CN(C)Cc1ccccn1,-11,-5
O=C(C[C@@H]1C=C[C@H](NC(=O)C2CC2)[C@H](CO)O1)NCCCN1CCOCC1,-3,-1
C[C@H]1CN([C@@H](C)CO)S(=O)(=O)c2ccc(-c3cccc(C(=O)N(C)C)c3)cc2O[C@H]1CN(C)C(=O)Nc1ccc(F)cc1,21,5

Given with two lines to a compound: entries from further up
Screens in order: Vaccinia inh	Vaccinia inh Venus
- CC(C)C#Cc1ccc2c(c1)O[C@@H](CN(C)C(=O)CN(C)C)[C@@H](C)CN([C@@H](C)CO)S2(=O)=O
 : -20	-11
- Cc1noc(C)c1NC(=O)N(C)C[C@@H]1Oc2ccc(NC(=O)c3ccncc3)cc2C(=O)N([C@@H](C)CO)C[C@@H]1C
 : 14	6
- COc1ccc(C#Cc2ccc([C@H]3[C@H]4CN(C)CCCCN4[C@H]3CO)cc2)cc1
 : u	x

(next part)
SMILES,Vaccinia inh,Vaccinia inh Venus
CCC(=O)N(C)C[C@@H]1Oc2cc(C#CC3(O)CCCC3)ccc2S(=O)(=O)N([C@H](C)CO)C[C@@H]1C,4,2
C[C@@H]1CN([C@H](C)CO)C(=O)Cc2cc(NC(=O)C3CCCCC3)ccc2O[C@@H]1CN(C)Cc1ccc(Cl)c(Cl)c1,u,x
C[C@@H]1CN([C@@H](C)CO)C(=O)c2cccc(NS(=O)(=O)c3ccc(Cl)cc3)c2O[C@@H]1CN(C)C(=O)Nc1ccc(F)cc1,-29,-30
CO[C@H]1CN(C)C(=O)c2cc(NC(=O)Nc3c(C)noc3C)ccc2OC[C@@H](C)N(C)C[C@@H]1C,-2,0
CNC[C@@H]1Oc2c(NC(=O)c3cc(C)nn3C)cccc2C(=O)N([C@H](C)CO)C[C@@H]1C,16,10
CO[C@@H]1CN(C)C(=O)c2cc(NC(C)=O)ccc2OC[C@@H](C)N(C(=O)C2CCC2)C[C@H]1C,4,9
O=C1O[C@@H](c2ccccc2)[C@@H](c2ccccc2)N2[C@@H](c3ccc(O)cc3)[C@]3(C(=O)Nc4ccc(C#CCCO)cc43)[C@@H](C(=O)NC[C@H](O)c3ccccc3)[C@H]12,7,-6
CO[C@H]1CN(C)C(=O)c2ccc(NC(=O)c3ccccc3)cc2OC[C@@H](C)N(C)C[C@H]1C,-6,-10
C[C@H]1CN([C@@H](C)CO)S(=O)(=O)c2ccc(Br)cc2O[C@H]1CN(C)Cc1ccccn1,11,7
COc1cccc(-c2ccc3c(c2)O[C@H](CN(C)C(=O)C2CCOCC2)[C@@H](C)CN([C@H](C)CO)S3(=O)=O)c1,10,8

New compounds follow:
SMILES,Vaccinia inh,Vaccinia inh Venus
CN1c2ccc(-c3ccccc3)cc2[C@H]2[C@H](CCN2C(=O)c2ccncc2)[C@H]1CO,-24,-27
CO[C@H]1CN(C)C(=O)c2ccc(NC(=O)c3cc(C)on3)cc2OC[C@H](C)N(C)C[C@H]1C,1,0
CN1C(=O)c2cc(NC(=O)c3cnccn3)ccc2OC[C@H]2O[C@@H](CC(=O)N[C@H]3CCN(Cc4ccccc4)C3)CC[C@H]21,-2,-12
Cc1ccc(S(=O)(=O)N(C)C[C@@H]2OCCCC[C@@H](C)Oc3ccc(NC(=O)NC(C)C)cc3C(=O)N([C@H](C)CO)C[C@H]2C)cc1,u,x
CO[C@H](CN(C)C(=O)Nc1ccc(F)cc1)[C@H](C)CN(Cc1ccccc1Cl)[C@H](C)CO,-14,-5
COc1ccc(CN(C)C[C@H]2Oc3ccc(NC(=O)C4CCCCC4)cc3CC(=O)N([C@H](C)CO)C[C@@H]2C)cc1,-20,-6
C/C=C/c1ccc(C2[C@H]3CNC[C@@H]2N3S(=O)(=O)c2ccccc2C)cc1 (stereo partly drawn),-5&-8,-6&-9
C[C@@H]1CCCCO[C@H](CN(C)C(=O)NC2CCCCC2)[C@@H](C)CN([C@H](C)CO)C(=O)c2cc(NC(=O)Nc3ccc4c(c3)OCO4)ccc2O1,12,-4
C[C@@H]1CCCCO[C@H](CN(C)C(=O)Nc2ccc(C(F)(F)F)cc2)[C@@H](C)CN([C@H](C)CO)C(=O)c2cc(NC(=O)c3ccncc3)ccc2O1,8,-9
C[C@@H]1CCCCO[C@@H](CN(C)C(=O)Nc2ccc(F)cc2)[C@H](C)CN([C@H](C)CO)C(=O)c2cc(NS(=O)(=O)c3ccc(Cl)cc3)ccc2O1,-17,-15

Further structures
SMILES,Vaccinia inh,Vaccinia inh Venus
C[C@H]1CN([C@@H](C)CO)C(=O)Cc2cc(NC(=O)NC3CCCCC3)ccc2O[C@@H]1CN(C)C(=O)Nc1ccc(C(F)(F)F)cc1,21,10
C/C=C/c1cnc2c(c1)C(=O)N([C@H](C)CO)C[C@H](C)[C@@H](CN(C)C(=O)c1cnccn1)O2,17,15
C[C@H](CO)N1C[C@H](C)[C@H](CN(C)C(=O)Nc2ccc(F)cc2)Oc2ccc(NC(=O)Nc3ccc(C(F)(F)F)cc3)cc2C1=O,3,0
CO[C@H]1CN(C)C(=O)c2ccc(NC(=O)c3nc4ccccc4s3)cc2OC[C@H](C)N(Cc2cncnc2)C[C@@H]1C,-20,-14
CCCNC(=O)N1C[C@H](O)COC[C@H]2O[C@H](CC(=O)N[C@H]3CCN(Cc4ccccc4)C3)CC[C@@H]21,20,22
CCNC(=O)[C@H]1[C@H](CO)[C@H]2Cn3c(ccc(-c4ccc(OC)cc4)c3=O)[C@H]2N1Cc1nccs1,-20,-15
C[C@@H]1CCCCO[C@@H](CN(C)S(=O)(=O)c2cn(C)cn2)[C@@H](C)CN([C@H](C)CO)C(=O)c2cc(NC(=O)NC3CCCCC3)ccc2O1,27,3
O=C(Cc1ccccn1)NCC[C@H]1CC[C@H](NS(=O)(=O)c2ccc(Cl)cc2)[C@@H](CO)O1,5,10
COc1ccccc1-c1cn(CC[C@H]2CC[C@H](NC(=O)CCN3CCCCC3)[C@H](CO)O2)nn1,0,10
CCCC#Cc1cnc2c(c1)C(=O)N([C@@H](C)CO)C[C@H](C)[C@@H](CN(C)C(=O)Nc1ccc(OC)cc1)O2,0,-7

(cont.)
SMILES,Vaccinia inh,Vaccinia inh Venus
COc1ccc(-c2ccc([C@H]3[C@@H](CO)N4C(=O)CN(C(=O)C5CCCC5)C[C@H]34)cc2)cc1,-24,-18
C[C@H](CO)N1C[C@H](C)[C@H](CN(C)CC2CC2)Oc2cc(C#Cc3ccccn3)ccc2S1(=O)=O,-5,2
CS(=O)(=O)Nc1ccc2c(c1)[C@H]1C[C@@H](CC(=O)NCc3cccnc3)O[C@H](CO)[C@H]1O2,9,0
O=C(C1CCCC1)N1CC2(C1)[C@@H](c1ccccc1)[C@H](CO)N2Cc1ccc(Cl)cc1,-12,1
CCCNC(=O)Nc1ccc2c(c1)OC[C@H](C)N(Cc1ccccn1)C[C@@H](C)[C@H](OC)CN(C)C2=O,4,2
C[C@@H]1CCCCO[C@H](CN(C)Cc2ccc3c(c2)OCO3)[C@@H](C)CN([C@H](C)CO)C(=O)c2cc(NC(=O)CCCN(C)C)ccc2O1,19,12
C[C@H](CO)N1C[C@H](C)[C@H](CN(C)C(=O)Nc2ccc(C(F)(F)F)cc2)OCCCC[C@H](C)Oc2ccc(NS(=O)(=O)c3ccc(F)cc3)cc2C1=O,-27,-14
CC(C)NC(=O)Nc1ccc2c(c1)CC(=O)N([C@@H](C)CO)C[C@@H](C)[C@@H](CN(C)Cc1ccccc1)O2,5,6
Cc1noc(C)c1S(=O)(=O)Nc1ccc2c(c1)C(=O)N([C@H](C)CO)C[C@H](C)[C@H](CN(C)Cc1ccc3c(c1)OCO3)O2,1,5
C[C@@H]1CCCCO[C@@H](CN(C)S(C)(=O)=O)[C@H](C)CN([C@@H](C)CO)C(=O)c2cc(N(C)C)ccc2O1,6,15

Overlap with the part before: 3 entries, then new ones.
SMILES,Vaccinia inh,Vaccinia inh Venus
CC(C)NC(=O)Nc1ccc2c(c1)CC(=O)N([C@@H](C)CO)C[C@@H](C)[C@@H](CN(C)Cc1ccccc1)O2,5,6
Cc1noc(C)c1S(=O)(=O)Nc1ccc2c(c1)C(=O)N([C@H](C)CO)C[C@H](C)[C@H](CN(C)Cc1ccc3c(c1)OCO3)O2,1,5
C[C@@H]1CCCCO[C@@H](CN(C)S(C)(=O)=O)[C@H](C)CN([C@@H](C)CO)C(=O)c2cc(N(C)C)ccc2O1,6,15
C[C@@H]1CN([C@H](C)CO)C(=O)Cc2cc(NC(=O)Nc3ccc(F)cc3)ccc2O[C@H]1CN(C)C(=O)Nc1ccccc1,16,10
C[C@H]1CN([C@@H](C)CO)C(=O)CCCn2cc(nn2)CO[C@H]1CN(C)S(=O)(=O)c1ccc(C#N)cc1,20,13
COC(=O)[C@H]1[C@H](CO)[C@H]2Cn3c(ccc(-c4ccc(OC)cc4)c3=O)[C@H]2N1C,17,23
COc1ccc(S(=O)(=O)N(C)C[C@@H]2Oc3ccc(NC(=O)Nc4ccccc4)cc3CC(=O)N([C@H](C)CO)C[C@H]2C)cc1,18,12
CO[C@@H]1CN(C)C(=O)c2cc(NC(=O)C3CCC3)ccc2OC[C@@H](C)N(Cc2ccc(F)cc2)C[C@H]1C,3,6
C/C=C/c1cnc2c(c1)C(=O)N([C@@H](C)CO)C[C@@H](C)[C@H](CN(C)C(=O)Nc1ccc(OC)cc1)O2,23,14
CCCNC(=O)N(C)C[C@H]1Oc2cc(C3=CCCCC3)ccc2S(=O)(=O)N([C@H](C)CO)C[C@H]1C,-6,0
C[C@H]1CN([C@@H](C)CO)C(=O)c2cc(NC(=O)Nc3ccc4c(c3)OCO4)ccc2O[C@H]1CN(C)S(=O)(=O)c1ccccc1,20,8
